# KCNQ2 block: KCNQ2 channel blockers in CHO-K1 cells – cell-based, FluxOR thallium flux, B-score, primary screen (AID 2156). 20 min; hits give low values; only compounds with negative scores are shown here; some inactives read as strong as hits. hit rate 1.1% among 310,000. B-score at 10 µM;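 active = fluorescence ratio B-score at most minus 3 library SDs, with starting brightness B-score within 2 library SDs, cut at about -5.5 in these data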
# Target sequence (O88943 whole entry, looked up): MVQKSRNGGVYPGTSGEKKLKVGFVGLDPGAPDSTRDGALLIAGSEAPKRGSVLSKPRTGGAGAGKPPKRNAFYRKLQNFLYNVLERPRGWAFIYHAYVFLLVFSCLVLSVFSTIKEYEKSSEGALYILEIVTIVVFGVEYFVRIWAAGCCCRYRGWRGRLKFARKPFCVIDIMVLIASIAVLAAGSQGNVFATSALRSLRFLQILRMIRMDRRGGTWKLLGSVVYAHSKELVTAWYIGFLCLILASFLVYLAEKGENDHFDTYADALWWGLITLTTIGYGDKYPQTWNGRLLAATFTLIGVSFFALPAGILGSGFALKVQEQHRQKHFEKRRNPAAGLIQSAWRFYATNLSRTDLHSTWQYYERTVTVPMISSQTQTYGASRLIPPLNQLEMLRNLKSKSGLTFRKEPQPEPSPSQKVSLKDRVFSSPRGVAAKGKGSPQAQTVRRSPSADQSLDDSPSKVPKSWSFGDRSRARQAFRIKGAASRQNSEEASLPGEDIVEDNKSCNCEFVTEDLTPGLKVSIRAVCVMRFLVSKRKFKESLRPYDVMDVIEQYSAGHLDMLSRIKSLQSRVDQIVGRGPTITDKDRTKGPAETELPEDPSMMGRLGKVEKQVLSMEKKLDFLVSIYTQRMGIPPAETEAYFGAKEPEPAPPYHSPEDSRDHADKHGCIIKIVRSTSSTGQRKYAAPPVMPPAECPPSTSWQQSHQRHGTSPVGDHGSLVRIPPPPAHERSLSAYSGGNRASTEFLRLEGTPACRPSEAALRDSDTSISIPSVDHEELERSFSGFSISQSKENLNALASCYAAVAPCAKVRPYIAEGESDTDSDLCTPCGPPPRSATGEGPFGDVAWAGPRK
# KCNQ2 block baseline: recorded beside KCNQ2 block, whose call it bears; B-score; measured here: initial fluorescence intensity artifact check;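 brightness before thallium and not channel activity; 0 = typical well and far values either way flag optical interference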
# Numbers without * were called inactive; i = inactive.
cpd	mol	KCNQ2 block	KCNQ2 block baseline
1	CCc1ccc(-c2nc(SCC(=O)NC3CCS(=O)(=O)C3)n[nH]2)cc1 (configuration not stated)	i	-0.38
2	N#CC1c2ccccc2C=CN1C(=O)c1ccccc1 (configuration not stated)	i	-0.82
3	CC(C)COc1ccc(C2NC(=O)NC2=O)cc1 (configuration not stated)	i	-0.07
4	O=C(Nn1cnnc1)C(Sc1ccccc1)c1ccccc1 (configuration not stated)	i	-2.52
5	Cc1cc(C)c(C(=O)N2CCCC(N3CCN(c4cccc(C(F)(F)F)c4)CC3)C2)o1 (configuration not stated)	i	-0.67
6	N#CC1=C(N)OC2=C(C(=O)CCC2)C1c1cc2c(cc1Br)OCO2 (configuration not stated)	i	-0.04
7	Cc1nc2ccccc2c(=O)n1/N=C/c1cccnc1	i	0.06
8	COc1ccc(N2CCN(CC(=O)Nc3ccc(C)cc3)CC2)cc1	i	-0.22
9	Clc1nccnc1-c1ccccc1	i	-0.38
10	Cc1cc2ccccc2n1CCNCc1c(C(=O)N2CCOCC2)nc2ccccn12	i	-0.72
11	COc1ccc(CCNc2ccc(C(CC(N)=O)NC(=O)c3cc(C)cc(C)c3)cc2[N+](=O)[O-])cc1 (configuration not stated)	i	-0.06
12	O=C(COc1ccccc1Cl)OCC(=O)N1CCN(S(=O)(=O)c2ccccc2)CC1	i	0.06
13	CCc1ccc(-c2nc(CSCC(=O)N3CCN(c4ccccn4)CC3)c(C)o2)cc1	-10.1*	-0.68*
14	CC(=O)NC(Cc1cccc(C)c1)C(=O)NC1CCN(C(=O)NCc2ccccc2)CC1 (configuration not stated)	i	-1.71
15	CCOc1ccc(NC(=O)c2ccc3c(SCC(=O)O)c4c(nc3c2)CCCC4)cc1	i	-1.44
16	CN(CC1CCCO1)S(=O)(=O)c1ccc(C(=O)Nc2ccc(F)cc2)cc1 (configuration not stated)	i	-0.27
17	CCN1C(=O)/C(=C/C=C2\C=CN(CC)c3ccccc32)SC1=S	i	-3.04
18	COc1ccc(/C(C)=N/NC(=O)CNC(=O)c2ccncc2)c(OC)c1	i	-0.83
19	CSC(=Nc1ccccc1)C(C#N)c1nc2ccccc2[nH]1 (configuration not stated)	i	-0.6
20	COc1cc(C(=O)OC(C)C(=O)N2CCc3ccccc3C2)ccc1OCC(=O)N1CCOCC1 (configuration not stated)	i	-0.83
21	COc1ccc(N2CCN(C(=O)CN3C(=O)C4CC=CCC4C3=O)CC2)cc1 (configuration not stated)	i	-0.07
22	CC(C)(C)NC(=O)c1cccc(NC(=O)c2ccc(NC(=O)c3ccco3)cc2)c1	i	-0.95
23	COc1ccc(C(=O)/C=C2/C(=O)Nc3ccccc32)c(OC)c1	i	1.04
24	O=C(Nc1ccccc1OCc1ccccc1)c1ccccc1Br	i	-3.16
25	CCn1ccnc1C(O)c1cccc(OC)c1 (configuration not stated)	i	0.24
26	O=C(NCc1cccnc1)c1cc([N+](=O)[O-])ccc1N1CCOCC1	i	-1.62
27	O=C(NC(=S)NCCc1ccccn1)c1ccccc1	i	1.44
28	O=C(Nc1ccc(S(=O)(=O)Nc2nccs2)cc1)c1cc(-c2ccncc2)nc2ccccc12	i	-1.3
29	Cc1ccc(NC(=O)c2cc(N3CCOCC3)nc3ccccc23)cc1	i	2.67
30	O=C(NCCSc1ccccn1)c1ccc(Cl)cc1Cl	i	0.47

# In another format: entries from further up
# The line under a structure holds: KCNQ2 block, KCNQ2 block baseline
(3) CC(C)COc1ccc(C2NC(=O)NC2=O)cc1 (configuration not stated)
 : i, -0.07
(4) O=C(Nn1cnnc1)C(Sc1ccccc1)c1ccccc1 (configuration not stated)
 : i, -2.52

# Molecules above with a furan ring, fused or not, in the order listed:
cpd	mol	KCNQ2 block	KCNQ2 block baseline
5	Cc1cc(C)c(C(=O)N2CCCC(N3CCN(c4cccc(C(F)(F)F)c4)CC3)C2)o1 (configuration not stated)	i	-0.67
22	CC(C)(C)NC(=O)c1cccc(NC(=O)c2ccc(NC(=O)c3ccco3)cc2)c1	i	-0.95

# (further entries)
cpd	mol	KCNQ2 block	KCNQ2 block baseline
31	Cc1ccc(-n2c(-c3ccccc3)c[n+]3c2CCc2ccccc2-3)c(C)c1	i	-1.19
32	O=C(N/N=C/c1ccco1)C12CC3CC(CC(C3)C1)C2	i	-0.83
33	COCCn1nnnc1CN(Cc1ccco1)Cc1cc2cc3c(cc2[nH]c1=O)OCO3	i	2.45
34	Nc1c(C(=O)NC2CC2)c2nc3ccccc3nc2n1-c1ccc2c(c1)OCO2	i	0.25
35	CCOc1ccc(N2CC(C(=O)NCc3nnnn3-c3ccc(C)c(C)c3)CC2=O)cc1 (configuration not stated)	i	-0.74
36	Clc1ccc(OCCn2cnc3ccccc32)c(Cl)c1	i	0.91
37	COC(=O)c1ccccc1N1C(=O)C2C(C1=O)[C@H]1C=C[C@@H]2C1 (some centres not stated)	i	0.09
38	CCCCOc1cccc(C(=O)Nc2ccc(S(=O)(=O)Nc3cc(C)on3)cc2)c1	i	0.05
39	COC(=O)C1=C(C)NC(=O)NC1c1c(O)ccc2ccccc12 (configuration not stated)	i	-0.98
40	O=C(CN1CCN(c2ccc(F)cc2)CC1)Nc1ccccc1	i	0.01
41	O=C(Nc1ccc(N2CCN(C(=O)c3ccccc3)CC2)cc1)c1ccc2c(c1)OCCO2	i	-1.19
42	O=C(Nc1cccc2ccccc12)NC1CCCc2ccccc21 (configuration not stated)	i	0.44
43	COCCn1c(=O)[nH]c2cc(C(=O)N3CCN(c4cc(C)ccc4C)CC3)ccc2c1=O	i	-2.53
44	COc1cccc(N2CCN(C(=O)c3nc4nc(C)cc(C)n4n3)CC2)c1	i	-0.86
45	COc1cc(OC)cc(C(=O)Nn2cc(C(=O)Nc3c(F)cccc3F)c3ccccc3c2=O)c1	-6.86*	1.39*
46	COc1ccc(C(=O)N2C(=S)NC(=O)/C2=C\c2ccc(C)cc2)cc1	i	-2.36
47	COc1ccc(-c2noc(N3CCCC(C(=O)Nc4ccc(F)cc4F)C3)n2)cc1 (configuration not stated)	i	0.01
48	O=C(Nc1ccc2nc(-c3ccc(Br)o3)[nH]c2c1)c1ccco1	i	0.55
49	CC(=O)N1CCc2cc(Br)cc(S(=O)(=O)CCC(=O)Nc3c(C)n(C)n(-c4ccccc4)c3=O)c21	i	0.98
50	Cc1ccccc1NC(=O)/C(C#N)=C/c1ccc[nH]1	i	-0.19
51	C[C@@H](C(=O)NCCc1ccccc1F)N1C(=O)N2CCc3c([nH]c4ccccc34)[C@@]2(C)C1=O	i	-0.93
52	O=C1CCN(Cc2ccccc2)CCN1[C@H](CSc1ccccc1)c1ccccc1	i	0.64
53	CCOC(=O)C1=C(CNCc2ccc(F)cc2)NC(=O)NC1c1cccc([N+](=O)[O-])c1 (configuration not stated)	i	-1.7
54	Cc1ccc(S(=O)(=O)N(CC#N)CC#N)cc1	i	0.11
55	O=C(Nc1cccc(S(=O)(=O)N2CCOCC2)c1)c1ccc(Cl)c([N+](=O)[O-])c1	i	0.93
56	CC(C)CNC(=O)COC(=O)/C=C/c1ccccc1[N+](=O)[O-]	i	1.89
57	S=c1[nH]nc(-c2ccccc2)n1Cc1ccccc1	i	-1.4
58	O=C(NCCCn1ccnc1)c1ccc(S(=O)(=O)N2CCCCCC2)cc1	i	2.67
59	Cc1ccc(CNC(=O)c2ccc(N3CCC4(CC3)CC(c3ccccc3)=NO4)c([N+](=O)[O-])c2)cc1	i	0.76
60	COc1ccccc1NC(=O)NCCc1c[nH]c2ccccc12	i	-1.67

# (more compounds)
cpd	mol	KCNQ2 block	KCNQ2 block baseline
61	N=c1n(CC(=O)c2ccc(Br)s2)c2ccccc2n1Cc1ccccc1	i	0.15
62	CC1Sc2ccc(S(=O)(=O)NCc3ccccc3)cc2NC1=O (configuration not stated)	i	0.05
63	Cc1cccc(Nc2nc(Cl)ncc2F)c1C	i	0.64
64	O=C1CCC(C(=O)N2CCCCCCC2)CN1Cc1cccc(C(F)(F)F)c1 (configuration not stated)	i	-1.68
65	CCCCN(CC)CCNC(=O)c1cc2c(=O)[nH]c3ccc(C)cc3c2s1	i	0.83
66	COC(=O)c1c(NC(=O)COc2ncnc3ccccc23)sc(C)c1C	i	-1.29
67	Clc1cccc(Cl)c1CN1CCN(c2ncccn2)CC1	i	-0.49
68	COc1ccc(C(=O)Nc2ccc(-c3cn4ccsc4n3)cc2)cc1S(=O)(=O)N1CCOCC1	i	2.26
69	COc1ccc(C(CNC(=O)COc2ccccc2C)N2CCOCC2)cc1 (configuration not stated)	i	-0.07
70	CCCCCN=CC1=C(O)CC(c2ccccc2)CC1=O (configuration not stated)	i	-0.85
71	CCCCCCSc1nsc(NC(C)=O)n1	i	-0.06
72	c1ccc(CCNCCOc2ccccc2)cc1	i	1.31
73	CCC1=CC(c2ccccc2)n2ncnc2N1 (configuration not stated)	i	-0.1
74	CCCNC(=O)CSc1n[nH]c(=O)n1CCc1ccccc1	i	-1.01
75	NC(=O)C1CCN(C(=O)C2CCN(S(=O)(=O)c3ccccc3)CC2)CC1	i	0.38
76	COc1ccc(/C=C/C(=O)Nc2ccccc2C(F)(F)F)cc1OC	i	0.69
77	O=C(COc1ccc(Cl)cc1Cl)NC(=S)Nc1ccc(CN2CCOCC2)cc1	i	0.81
78	COC(=O)C1=C(C)N(C)C(C)=C(C(=O)OC)C1c1ccccc1C	i	0.34
79	CCOC(=O)c1ccc(NC2c3ccccc3C(=O)N2c2cccnc2)cc1 (configuration not stated)	i	-2.9
80	Cc1c(NC(=S)Nc2cccc(Cl)c2)c(=O)n(-c2ccccc2)n1C	i	3.26
81	COC(=O)c1ccccc1NC(=O)c1cc2ccccc2o1	i	0.13
82	COc1cc(C(CCN2CCCC2)c2c(OC)cc(OC)c3c(-c4ccccc4)cc(=O)oc23)cc(OC)c1OC (configuration not stated)	i	0.36
83	CCCCCCn1c(=O)c(F)cn(Cc2ccc(OC)c([N+](=O)[O-])c2)c1=O	i	0.48
84	COc1cccc(NC(=O)c2ccccc2Oc2ccccc2)c1	i	1.14
85	Cc1ccccc1NC(NC(=O)c1cccs1)C(Cl)(Cl)Cl (configuration not stated)	i	-0.95
86	O=C(COc1ccc2c(c1)CCC2)Nc1ccccn1	i	0.5
87	Cn1c(=O)oc2cc(S(=O)(=O)NCc3cccnc3)ccc21	i	1.18
88	CCOC(=O)C1=NNC(C(=O)c2ccccc2)C1c1ccc(Cl)cc1 (configuration not stated)	-8.81*	-2.17*
89	CC(C)(C)NC(=O)NC(=O)CN1CCN(S(=O)(=O)/C=C/c2ccccc2)CC1	i	0.03
90	CCOc1ccc(-n2cc(C(=O)N3CCN(C)CC3)c3cc(OC)c(OC)cc3c2=O)cc1	i	-0.03

# Shown as labelled records: entries from further up.
87	Cn1c(=O)oc2cc(S(=O)(=O)NCc3cccnc3)ccc21
- KCNQ2 block: i
- KCNQ2 block baseline: 1.18
86	O=C(COc1ccc2c(c1)CCC2)Nc1ccccn1
- KCNQ2 block: i
- KCNQ2 block baseline: 0.5

# More records.
cpd	mol	KCNQ2 block	KCNQ2 block baseline
91	Cc1cccc(-c2noc(CSc3ccccc3)n2)c1	i	-2.04
92	S=c1sc2c(Cl)ncnc2n1-c1ccccc1	i	-0.86
93	CCOc1ccc(S(=O)(=O)Nc2cccc(C(=O)N3CCN(c4cccc(OC)c4)CC3)c2)cc1	i	1.5
94	CC(=O)C1=C(O)C(=O)OC1c1ccc(Cl)cc1 (configuration not stated)	i	1.19
95	CN1CCN(NC(=O)c2cc(-c3ccccn3)nc3ccccc23)CC1	i	0.03
96	Cn1c(=O)c2c(nc(Oc3ccccc3Cl)n2C)n(C)c1=O	i	-0.63
97	CC(=O)NCC(=O)N1CCCC(C(=O)c2ccc(Oc3ccccc3)cc2)C1 (configuration not stated)	i	0.26
98	CC(C)C(=O)Nc1cc2c3c(c1)CCC(=O)N3CCC2	i	-1.31
99	CC(C)NCC(O)c1cc(O)cc(O)c1 (configuration not stated)	i	0.28
100	CN(C)CCCNC(=O)CC(c1ccc(F)cc1)c1ccco1 (configuration not stated)	i	2.95
101	COc1ccccc1C(=O)C1CCCN(C(=O)c2ccc(C(C)=O)s2)C1 (configuration not stated)	i	-0.92
102	O=C(c1cc(Br)ccc1Cl)N1CCN(c2ncccn2)CC1	i	-1.05
103	Cc1ccc(S(=O)(=O)n2c(C)nc3ccccc32)cc1	-7.28*	-0.98*
104	CC(=O)Nc1ccc(S(=O)(=O)Nc2nc3ccccc3nc2Nc2ccc(S(N)(=O)=O)cc2)cc1	i	0.1
105	COc1ccc(NS(=O)(=O)c2c(C)[nH]c(=O)[nH]c2=O)c(OC)c1	i	3.11
106	Cn1c2ccccc2c2nnc(SCc3ccc4nonc4c3)nc21	i	1.61
107	CCc1ccc(OCC(=O)NCCOc2ccccc2)cc1	i	0.11
108	N#Cc1c(N)nc(SCC(=O)NC2CCCCC2)c(C#N)c1-c1ccc(Cl)cc1	i	1.29
109	Cc1cc(C)c(NS(=O)(=O)c2ccc(Cl)c(C(=O)O)c2)c(C)c1	i	-1.5
110	COc1ccccc1C1=NOC(C(=O)N2CCN(C(=O)c3ccco3)CC2)C1 (configuration not stated)	i	1.96
111	O=C(NCCN1C(=O)CCC1=O)c1ccncc1	i	-0.02
112	O=C(CCc1ccccc1)Oc1ccccc1[N+](=O)[O-]	i	0.02
113	Cc1ccc(NC(=O)c2cccnc2)cc1S(=O)(=O)N1CCOCC1	i	-0.41
114	CCOC(=O)CSc1nnc(-c2ccoc2C)n1-c1ccc(C)cc1	i	0.39
115	COC(=O)C(NC(=O)c1ccc(Cl)cc1)(Nc1nc(C)cs1)C(F)(F)F (configuration not stated)	i	-0.71
116	N#CCCN1C(=O)C2(OCCO2)c2ccccc21	i	-1.14
117	COc1ccc(-c2cc(C(=O)N3CCCC3)c3ccccc3n2)cc1	i	-1.5
118	CCOc1ccc(CCNC(=O)C2CCN(c3nnc(-n4cccc4)s3)CC2)cc1OCC	i	0.35

# Compound profiles (already shown). Order of values: KCNQ2 block, KCNQ2 block baseline
# `CCOc1ccc(S(=O)(=O)Nc2cccc(C(=O)N3CCN(c4cccc(OC)c4)CC3)c2)cc1` is listed with i, 1.5
# `COc1ccccc1C(=O)C1CCCN(C(=O)c2ccc(C(C)=O)s2)C1` (configuration not stated) is listed with i, -0.92

# Not all compounds are listed; count on the stated rates, not on these rows.
